# Assay outcomes from PubChem.
# VDR inhibitor: vitamin D3 receptor (human) inhibition; VDR-SRC2-3 peptide fluorescence polarization, 2 h; 0.93% of 400,000 active; Potency, µM, for the others: max response, negative = inhibition, hits mostly inhibitors; active = well fitted inhibition curve with a large enough effect; inconclusive = small, poorly fitted or top-dose-only effect, or another doubt; inactive = no such curve, though single readings can be large or run the other way; also: series mostly up to about 120 µM
# Target sequence (P11473 whole entry, looked up): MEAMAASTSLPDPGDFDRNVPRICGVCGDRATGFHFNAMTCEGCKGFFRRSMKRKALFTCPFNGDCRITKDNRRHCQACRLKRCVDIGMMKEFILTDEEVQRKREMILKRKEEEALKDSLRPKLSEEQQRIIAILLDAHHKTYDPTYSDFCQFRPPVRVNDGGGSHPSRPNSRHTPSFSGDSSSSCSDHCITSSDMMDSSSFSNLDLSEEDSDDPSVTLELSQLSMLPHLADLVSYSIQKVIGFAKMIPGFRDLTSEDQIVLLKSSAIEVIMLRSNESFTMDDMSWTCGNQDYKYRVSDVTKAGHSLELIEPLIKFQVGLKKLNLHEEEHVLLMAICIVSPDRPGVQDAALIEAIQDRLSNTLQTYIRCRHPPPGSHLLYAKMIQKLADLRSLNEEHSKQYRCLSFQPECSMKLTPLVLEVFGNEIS
#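 Signal is fluorescence polarization, reporting how far test compounds block the interaction of VDR with the SRC2-3 coregulator peptide after a 2 h room-temperature incubation.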
# Numbers without * were called inactive; ? = inconclusive; & = joins results of further samples. % is scaled to controls: 0 for no effect and ±100 for the full control effect; potency is read from the fitted curve at half-maximal effect.
nr	Compound	VDR inhibitor
1	COc1ccccc1/C=C/C1C(C(=O)OCC(C)C)=C(C)N=C2SCCC(=O)N21 (stereo not given)	-14%
2	Cn1c(/C(C#N)=C(\O)c2cccc(F)c2)nc2ccccc21	-9%
3	CC(C)C(=O)Nc1cc(C(F)(F)F)ccc1-n1ccnc1	-18%
4	COc1ccc(N2C(=O)CC(C)(C)CC2=O)cc1OC	15%
5	Cc1ccc(CN(C(=O)c2ccccc2[N+](=O)[O-])C2CCS(=O)(=O)C2)o1 (stereo not given)	-27%
6	Cc1ccc(Nc2nc3nonc3nc2Nc2cccc(C(F)(F)F)c2)cc1Cl	-8%
7	O=C(Cn1c(=O)nc(-c2ccccc2)c2ccccc21)Nc1ccc(Cl)cc1F	-23%
8	COc1ccc(C2(C#N)CCC(=O)N2c2ccccc2)cc1 (stereo not given)	-18%
9	C=CCNC(=O)C(=O)c1c(-c2ccccc2)[nH]c2ccccc12	-5%
10	O=C(CN1C(=O)NC2(CCOc3ccccc32)C1=O)NCCc1ccc(F)cc1 (stereo not given)	10%
11	CCOC(=O)C1=C(c2ccccc2)NC(SCC(=O)Nc2ccccc2C)=C(C#N)C1c1ccco1 (stereo not given)	-7%
12	CN(C)c1ccc(NC(=O)COC(=O)CCC(=O)c2ccc(F)cc2)cc1	-14%
13	COc1ccc(-c2nc(-c3ccccc3)c(Nc3ccc4ccccc4c3)o2)cc1	4%
14	COc1ccc(C2=NN(CC(=O)NCc3ccco3)C(=O)CC2)cc1	?
15	Cc1ccc(-c2c(C(=O)NCc3ccc(F)cc3)oc(=O)c3ccccc23)cc1	-4%&-2%
16	CC(Sc1nnc(Nc2ccccc2)s1)C(=O)NC1CCCc2ccccc21 (stereo not given)	-22%
17	CC(C)c1ccc(O)c(NC(=O)c2cccnc2)c1	-23%
18	Cc1ccc(C)c(NC(=O)CSc2nnc(Cc3cccn3C)n2-c2ccc(F)cc2)c1	-9%
19	COc1ccccc1C1NC(=O)NC(C)=C1C(=O)OC1CCC(C)CC1 (stereo not given)	0%
20	Cc1ccccc1Cn1c2ccccc2c2cnn(CC(=O)NCCCN3CCOCC3)c(=O)c21	15%
21	Cc1ccc(-c2nc3ccccc3n3nnnc23)cc1	5%
22	CCCCN(C)C(=O)C1CCN(CCCc2ccccc2)CC1	1%
23	COc1cc(OC)nc(-n2ncc(Br)c(Br)c2=O)n1	-22%
24	COc1ccc(OC)c(NC(=O)CSc2nnc(CNc3ccc(C)cc3C)o2)c1	-11%
25	COC(=O)c1ccc(NC(=O)c2cc3c(CO)cnc(C)c3oc2=Nc2cccc(C(N)=O)c2)cc1	3%
26	Cc1ccc(CN(C(=O)COc2ccc(Cl)c(C)c2)c2ccccn2)o1	5%
27	Cc1ccc(C)c(CSc2ccc3nnc(CCNS(=O)(=O)c4ccccc4)n3n2)c1	18%
28	Cc1nc2ccc(N=NN(C)C)cc2[nH]1	50µM*
29	CCOc1ccc(C2/C(=C(/O)c3ccc(S(=O)(=O)N4CCCCC4)cc3)C(=O)C(=O)N2CCCOC)cc1OC (stereo not given)	-10%
30	COc1ccc(N(C)C(=O)c2oc(=O)c3ccccc3c2-c2ccccc2)c(OC)c1	-10%
31	O=C(Nc1nc2ccccc2[nH]1)c1ccccc1O	-3%
32	CC(=O)c1c(C)[nH]c(C(=O)CSc2nnc(C)s2)c1C	-14%
33	CCOC(=O)N1CCN(C(=O)CCCN2C(=O)CSc3nc(C)cc(C)c32)CC1	0%
34	CC(C)C(NC(=O)CSCc1ccc([N+](=O)[O-])cc1)C(C)C	7%
35	CCc1cccc(NC(=O)CCCCCC2NC(=O)NC2C)c1 (stereo not given)	-10%
36	O=c1[nH]c(Cc2ccccn2)nc2scc(-c3ccccc3Cl)c12	-5%
37	N/C(=N\OC(=O)CCC1CCCC1)c1ccccc1	3%
38	O=C1C(Cc2ccccc2)NC(=S)N1Cc1ccccc1 (stereo not given)	8%
39	O=C(Nc1ccc(F)cc1)OCCN1CCN(Cc2ccccc2)CCC1=O	-13%&1%
40	COC(=O)c1ccc(Nc2cc(C)nc3ccc(C)cc23)cc1	-10%
41	CCCN(CCC)S(=O)(=O)c1ccc(C(=O)NNc2nc(-c3ccccc3)c3cc(Br)ccc3n2)cc1	-29%
42	COc1ccc(N2CCN(c3ncnc4c3cnn4-c3ccc(F)cc3)CC2)cc1	8%
43	Cc1nc2c(ccc3nc(NC(=O)Cc4cccc5ccccc45)sc32)s1	-1%
44	COc1ccccc1NC(C)C(=O)N/N=C/c1ccccc1OCc1cccc(Br)c1 (stereo not given)	1%
45	COc1ccccc1NC(=O)COC(=O)c1ccc2ccccc2n1	-2%
46	COc1ccccc1CCNC(C)CCc1ccc(O)cc1 (stereo not given)	-11%
47	COc1ccc(-c2c(C#N)c(N)nc3c2CCCCCC3)cc1OC	2%
48	CC(C)NS(=O)(=O)c1ccc(OCC(=O)Nc2cccc(F)c2)cc1	-6%
49	O=C(N1CCOCC1)C1(c2ccc(Cl)cc2)CCCC1	-11%
50	O=C1C2ON(c3ccccc3)C(c3cccnc3)C2C(=O)N1Cc1ccccc1 (stereo not given)	-10%
51	COc1ccccc1-c1nnc(SCC(=O)N2CCC(C)CC2)o1	5%
52	CC(C)CCN(C(=O)CNC(=O)c1ccco1)C(C(=O)NC1CCCCC1)c1ccco1 (stereo not given)	-7%
53	CCOc1ccc(NC(=O)CSc2oc(-c3ccccc3)nc2S(=O)(=O)c2ccc(Cl)cc2)cc1	7%
54	CC(=O)NNc1nc(-c2ccc(NC(C)=O)cc2)cs1	-6%
55	COc1ccc(CNC(=O)Oc2ccccc2)cc1Cl	-16%
56	NCCc1nnc(SCC(=O)c2ccc(Cl)cc2)o1	-25%
57	O=C(c1cccc(S(=O)(=O)N2CCOCC2)c1)N1CCN(C/C=C/c2ccccc2)CC1	-19%
58	O=C(Nc1nc(-c2ccccc2)c(-c2ccccc2)s1)c1ccc(S(=O)(=O)N2CCCC2)cc1	-18%
59	O=C(c1ccco1)N1CCN(S(=O)(=O)c2cccc(Cl)c2)CC1	10%
60	O=c1c2ccccc2nc(-c2ccccc2)n1Cc1ccco1	-10%

# Entries from the list above with a furan ring, fused or not (7):
nr	Compound	VDR inhibitor
5	Cc1ccc(CN(C(=O)c2ccccc2[N+](=O)[O-])C2CCS(=O)(=O)C2)o1 (stereo not given)	-27%
11	CCOC(=O)C1=C(c2ccccc2)NC(SCC(=O)Nc2ccccc2C)=C(C#N)C1c1ccco1 (stereo not given)	-7%
14	COc1ccc(C2=NN(CC(=O)NCc3ccco3)C(=O)CC2)cc1	?
26	Cc1ccc(CN(C(=O)COc2ccc(Cl)c(C)c2)c2ccccn2)o1	5%
52	CC(C)CCN(C(=O)CNC(=O)c1ccco1)C(C(=O)NC1CCCCC1)c1ccco1 (stereo not given)	-7%
59	O=C(c1ccco1)N1CCN(S(=O)(=O)c2cccc(Cl)c2)CC1	10%
60	O=c1c2ccccc2nc(-c2ccccc2)n1Cc1ccco1	-10%

# The list continues.
nr	Compound	VDR inhibitor
61	CCC(C)[C@H]1COCCS(=O)(=O)N1Cc1ccc(Br)cc1 (stereo not given in full)	-2%
62	COc1cccc(CN2CCNC(=O)C2CC(=O)NCCc2cccc(C)n2)c1OC (stereo not given)	1%
63	Cc1ccc2c(c1)[nH]c1c(N3CCN(Cc4ccccc4)CC3)ncnc12	-6%
64	O=C(Cn1ncc2c(=O)oc3ccccc3c21)NCCCN1CCCC1=O	-10%
65	O=C(CSCc1ccc(Br)cc1)NC1CC1	-4%
66	CN(C)S(=O)(=O)c1ccc(Cl)c(NC(=O)CN2C(=O)NC(C)(C3CC3)C2=O)c1 (stereo not given)	-17%
67	CCOC(=O)c1cnc2c(C#N)c(C)nn2c1-c1ccccc1	-2%
68	COc1cccc(NC(=O)NCc2ccccc2F)c1	?
69	Cn1c(N)c(C(=O)COC(=O)c2ncc(Cl)c(Cl)c2Cl)c(=O)n(C)c1=O	-10%
70	Cc1[nH]c2ccccc2c1CN1CCC(Cc2ccccc2)CC1	-11%
71	CCOC(=O)c1cnc(Cc2ccccc2)[nH]c1=O	9%
72	CCOc1ccc(CN(C)C(=O)CCN2C(=O)c3ccccc3C2=O)cc1OC	-7%
73	COc1cc(CCC(=O)OCC(=O)Nc2nc(C)c(Cl)cc2Cl)cc(OC)c1OC	-7%
74	CN(C)C(=O)CSc1nc(SCC(=O)N(C)C)n(-c2ccccc2)n1	-16%
75	COc1ccc(Cn2nnnc2C(c2ccc3ncccc3c2)N2CCN(C3CCCCC3)CC2)cc1 (stereo not given)	-16%
76	COc1ccc(CCNS(=O)(=O)c2ccc(-n3cnnn3)cc2)cc1OC	16%
77	CC1=C(C(=O)Nc2ccccc2)C(c2ccncc2)C(C#N)=C(SCC(=O)NC2CC2)N1 (stereo not given)	18%
78	Cc1ccc(C(=O)c2ccc(N3CCN(C)CC3)c([N+](=O)[O-])c2)cc1	-11%
79	CCNc1nc(NCC)n2c(SCC(=O)Nc3ccc(CC)cc3)nnc2n1	50µM*
80	c1ccc2[nH]c(-c3cnco3)cc2c1	-11%
81	O=C(CC1NCCNC1=O)OCCCc1ccccc1 (stereo not given)	6%
82	COc1ccc(N(CC(O)Cn2c(C)nc3ccccc32)S(=O)(=O)c2ccc(C)cc2)cc1 (stereo not given)	-15%
83	O=C(NCCC1=CCCCC1)C(=O)NCC(c1ccco1)N1CCN(c2ccc(F)cc2)CC1 (stereo not given)	5%
84	Cc1ccc(C)n1CCN1CCN(C(=O)CSc2nc3ccccc3nc2N2CCOCC2)CC1	8%
85	O=C1CCC(=O)c2oc3ccccc3c2N1	16%
86	NC(=O)C1=C(N)c2ccccc2C1c1ccccc1 (stereo not given)	-14%
87	C[N+](C)(CCOc1ccccc1)Cc1ccccc1 (tested in a mixture with another compound)	-9%
88	C/C(=N/NC(=O)C1COc2ccccc2O1)c1ccc(Br)s1 (stereo not given)	-13%
89	Cc1cc(NC(=O)c2ccco2)sc1C	-24%
90	C/C(=N\NC(=S)NC(C)C)c1ccc(C(C)(C)C)cc1	-9%

# With a hit mark in VDR inhibitor, among the entries above:
nr	Compound	VDR inhibitor
28	Cc1nc2ccc(N=NN(C)C)cc2[nH]1	50µM*
79	CCNc1nc(NCC)n2c(SCC(=O)Nc3ccc(CC)cc3)nnc2n1	50µM*

# Remaining list, next part.
nr	Compound	VDR inhibitor
91	COc1ccc(CCN(C)C(=O)c2ccc(S(=O)(=O)Nc3ccccc3F)cc2)cc1OC	-8%
92	COc1cc(/C=N/N=C2\CC3CCC2(C)C3(C)C)ccc1O (stereo not given)	-10%
93	CCOc1ccc(N2CC(C(=O)NCCC3=CCCCC3)CC2=O)cc1 (stereo not given)	10%
94	O=C(NN1C(=O)c2ccccc2NC1c1ccco1)c1ccccc1 (stereo not given)	3%
95	O=C(Cn1c(=O)n(Cc2ccco2)c(=O)c2ccccc21)Nc1cccc(Cl)c1	-19%
96	C=CCNC(=O)c1onc(CSc2ccc(F)cc2)c1C(=O)NCCOC	-9%
97	CCc1ccc(/C=C2/SC(=S)N(CCC(=O)Nc3cccnc3)C2=O)cc1	-14%
98	COc1ccc([C@@H]2CC=C(C(=O)O)[C@H](c3ccc(C(C)(C)C)cc3)N2S(=O)(=O)c2ccc(C)cc2)cc1OC	14%
99	CCN(CC(=O)Nc1c(F)cccc1F)C(=O)c1ccc(S(=O)(=O)N2CCC(C)CC2)cc1	-12%
100	CCN(CC)c1ccc(NC(=O)C2CCC(CNc3c(N4CCCC4)c(=O)c3=O)CC2)c(C)c1 (stereo not given)	-23%
101	Cc1cccc(NC(=O)CNC(=O)CCc2nc3sc4c(c3c(=O)[nH]2)CCCC4)c1C	4%
102	CCN(CC)c1ccc(C2C(C(=O)OCCOC)=C(C)NC3=C2C(=O)CCC3)cc1 (stereo not given)	4%
103	COc1c(Cl)cc(Cl)cc1CNCCNCC(C)O (stereo not given)	-4%
104	COc1ccc(CNS(=O)(=O)NCc2ccccc2)cc1	-6%
105	O=C(O)c1ccc(C2Nc3ccccc3-c3nnc(SCc4ccc(Cl)cc4)nc3O2)cc1 (stereo not given)	-13%
106	O=C(NCCN1CCCCC1)c1c(O)c2ccccc2[nH]c1=O	-8%
107	CCOCCCn1c(SCC(=O)Nc2ccc(C(N)=O)cc2)nc2ccccc2c1=O	4%
108	Cc1cc(NC(=O)/C=C/c2cccc(Cl)c2)n(-c2nc3ccccc3[nH]2)n1	-2%
109	COc1ccc(S(=O)(=O)N2CCC(C(N)=O)CC2)c2ccccc12	24%
110	Cc1ccc(-n2nnnc2SCc2ccccn2)cc1C	6%
111	CCC(=O)N1CCc2cc(CNC(=O)Cc3ccc(F)cc3)ccc21	14%
112	CC1COc2ccccc2N1C(=O)c1ccc(Cl)cc1 (stereo not given)	-13%
113	CC1CCCN(C(=O)c2cc(-c3ccco3)nc3ccccc23)C1 (stereo not given)	35µM*
114	O=C(NCc1csc(-c2cccs2)n1)C1CCC1	-9%
115	CN(C)c1ncc2nc(CCc3ccccc3)c(=O)n(C3CC3)c2n1	?
116	CCC(=O)c1ccc(OCC(=O)NC2CCN(Cc3ccccc3)CC2)cc1	14%
117	CCCOc1ccc(C(=O)Nc2ccc(S(=O)(=O)Nc3cc(C)nc(C)n3)cc2)cc1	-13%
118	O=S(=O)(Nc1ccc2c(c1)OCCO2)c1ccc2oc3ccccc3c2c1	-3%
119	Cc1ccccc1CN1C(=O)c2ccccc2Sc2ccc(C(=O)NCc3cccs3)cc21	2%
120	O=C(c1ccccc1)C1CCN(C(=O)c2ccc(Cl)cc2)CC1	-8%
121	Oc1ccccc1-c1n[nH]c(=S)n1Cc1ccccc1	2%
122	CC(C)CC(c1nnnn1CCc1ccccc1)N1CCC(C(N)=O)CC1 (stereo not given)	-3%
123	CCc1ccc(C(=O)N2CCN(c3ccc(F)cc3)CC2)s1	13%
124	CC(=O)c1cnc2cc(C)nn2c1C	12%
125	CCn1cc(C(=O)NCCc2ccc(C)cc2)c(=O)c2cc(S(=O)(=O)N3CCc4ccccc4C3)ccc21	-3%
126	Clc1ccc(-c2nc3ccccc3n2OCc2ccccc2)cc1	-1%
127	Cc1noc(-c2ccc(N(C)Cc3ccccc3)c([N+](=O)[O-])c2)n1	4%

# Some of the compounds tested (hit frequency here may not be typical).
